Screening data as filed in PubChem BioAssay.
HCMV NEC inh – inhibitors of HCMV UL50-UL53 interaction, biochemical, HTRF; HCMV UL50-UL53 nuclear egress complex (human cytomegalovirus); normalized percent inhibition; inhibition, % (concentration not given with the values); actives 0.15% (n = 190,000); AID 1918969, 2023;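 active means both replicates at 50% or more, plus weaker picks with an unusually low signal ratio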;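 further: stock transfer was 100 nL into about 20 µL; 0% = negative control wells and 100% = wells with untagged competitor protein; inactives centre near -12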
Sa growth inh – S. aureus growth inhibition at 42 and 30 °C, primary screen, LtaS inhibitor project, RN4220, two temperatures | OD600, 20 h, 42 °C; stronger effect = lower value | actives 0.53% (n = 170,000) | AID 720641, 2013 | relative growth, % (concentration not given with the values);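 active means growth at 42 °C up to 50% and 20 or more points under that at 30 °C, or under 10% at both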;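 further: 300 nL library stock went into each well; scaled to the means of positive and negative controls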
GIV Gai3 FP – inhibitors of GIV peptide binding to Galpha-i3, primary screen, biochemical, fluorescence polarization, FITC-GIV GBA peptide, rat Galphai3 | AID 1224905, 2016 | percent of control (FP), % (test concentration not listed) | actives 0.42% (n = 210,000) | 90 min; stronger effect = lower value; scaled: aluminum fluoride 0%, vehicle 100% | Guanine nucleotide-binding protein G(i) subunit alpha-3 (Rattus norvegicus), P08753;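 active means replicate mean at 85% of control or lower, very high polarization wells dropped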;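 further: wells of about 15 µL received 100 nL stock; the first replicate is given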
Target sequence (P08753 whole entry, looked up): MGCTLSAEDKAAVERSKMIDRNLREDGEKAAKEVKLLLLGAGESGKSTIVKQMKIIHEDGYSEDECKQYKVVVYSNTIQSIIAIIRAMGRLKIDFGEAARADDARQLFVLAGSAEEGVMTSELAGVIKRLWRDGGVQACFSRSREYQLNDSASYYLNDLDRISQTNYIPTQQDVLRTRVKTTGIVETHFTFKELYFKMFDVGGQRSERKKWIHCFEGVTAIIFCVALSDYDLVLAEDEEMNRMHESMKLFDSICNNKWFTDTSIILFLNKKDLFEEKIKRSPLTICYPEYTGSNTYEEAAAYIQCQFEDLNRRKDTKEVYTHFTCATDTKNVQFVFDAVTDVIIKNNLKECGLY
Sa growth inh second temp – further read-out of Sa growth inh, marked with its call; relative growth, %; measured here: growth at 30 °C;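 optical density after 20 h as mean of two plates; 100% = untreated growth and lower means inhibition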
* hit, by the source's call; nt = no result given; & = joins results of further samples.

(1) CCOC(=O)C1CCN(c2cc3c(cc2NC(=O)NC(C)CC)n(C)c(=O)n3C)CC1 (configuration not stated)
(2) CCc1ccc2occ(CC(=O)Nc3ccc(OC)c(Cl)c3)c2c1
(3) Cc1nc2sccn2c1-c1nc(-c2ccccc2)c(C(=O)c2ccc3c(c2)NC(=O)CO3)s1
(4) CCS(=O)(=O)N1CCC(C(=O)NC2CCCCCC2)CC1
(5) Cc1cc2nc(COc3ccc(NC(=O)C4CC4)cc3)cc(=O)n2o1
(6) CCN(Cc1ccc2c(c1)OCCO2)C(=O)c1ccc(-n2cccn2)cc1
Compound	1	2	3	4	5	6
HCMV NEC inh	-17	13	-12	-5	12	-8
Sa growth inh	nt	97	94	104	nt	102
Sa growth inh second temp	nt	93	90	95	nt	94
GIV Gai3 FP	99	111	nt	103	95	nt

(7) O=c1c2c(-c3ccccc3)csc2nc2n1CCC2
(8) Cc1ccc(-c2ccc(=O)n(CC(=O)Nc3cccc(C#N)c3)n2)cc1
(9) Cc1cc2nc3sc(C(=O)NCCCN4CCN(c5ccc(F)cc5)CC4)cc(=O)n3c2cc1C
(10) CCCCc1nnc2sc(COc3ccc(Cl)cc3)nn12
(11) Cc1ccc2c(NC(=O)C(C)(C)C)cccc2n1
(12) COC(=O)c1ccc(Oc2nc(Nc3cccc(C)c3C)nc(N3CCC(C)CC3)n2)cc1
Compound	7	8	9	10	11	12
HCMV NEC inh	-9	4	-30	-14	-19	nt
Sa growth inh	106	95	nt	nt	101	91
Sa growth inh second temp	84	88	nt	nt	96	92
GIV Gai3 FP	nt	106	97	103	108	104

(13) O=C(NC1CC1)C1CCN(c2nc3nc[nH]c(=O)c3s2)CC1
(14) COc1ccc(CNC(=O)CCC2N=C3c4ccccc4N=C(SCc4cccc(F)c4)N3C2=O)cc1 (configuration not stated)
(15) O=C(c1cccc(F)c1)N1CCN(C(=O)C2CC2)CC1
(16) CN(C)c1ccc(/C=C2\N=C(c3ccc(Br)o3)OC2=O)cc1
(17) COC(=O)c1ccc(S(=O)(=O)N2CCC(c3nc4ccccc4s3)CC2)cc1
(18) COC(=O)C1=C(N)OC2=C(C(=O)CCC2)C1c1ccc(OCc2ccccc2)cc1 (configuration not stated)
Compound	13	14	15	16	17	18
HCMV NEC inh	-33	nt	3	-26	-23	-12
Sa growth inh	nt	116	97	98	97	93
Sa growth inh second temp	nt	93	100	92	100	69
GIV Gai3 FP	105	101	98	-56*	100	96

(19) O=C(NCCc1csc2nc(-c3cccc(F)c3)nn12)c1ccccc1Cl
(20) Cc1nc2ccc(NC(=O)c3ccc([N+](=O)[O-])cc3)cc2s1
(21) CC(=O)OC1CCN(Cc2ccccc2)C(C)C1C (configuration not stated)
(22) CCC(=O)n1c(SC)nc2ccccc21
(23) Cc1onc(-c2ccccc2Cl)c1C(=O)Nc1cc(-n2cnnn2)ccc1N1CCCCC1
(24) Cc1cc(C)c(C#N)c(SCCCCSc2nc(C)cc(C)c2C#N)n1
Compound	19	20	21	22	23	24
HCMV NEC inh	15	-18	2	-4	-20	-3
Sa growth inh	nt	nt	111	89	nt	98
Sa growth inh second temp	nt	nt	97	86	nt	87
GIV Gai3 FP	101	105	100	nt	99	102

(25) NC(=O)c1nc(C2CCCCC2)nc2c1[nH]c(=O)n2-c1ccccc1
(26) Cc1nn(-c2ccccc2)c(N2CCCC2)c1/C=N/OCC(=O)Nc1ccc(F)cc1F
(27) CC(C)(C#N)c1cc(Cn2cncn2)cc(C(C)(C)C#N)c1
(28) CCOc1cc(C2C(C(=O)OCCOc3ccccc3)=C(C)NC3=C2C(=O)CC(C)(C)C3)ccc1O (configuration not stated)
(29) CCOc1ccc(S(=O)(=O)Nc2cccc(-c3ccc(N4CCC(C)CC4)nn3)c2)cc1
(30) CCOc1ccc(C(=O)N2CCC(c3nc4c(nnn4Cc4ccc(F)cc4)c(=O)[nH]3)CC2)cc1
Compound	25	26	27	28	29	30
HCMV NEC inh	3	-9	-36&4&-43	-17	nt	5
Sa growth inh	91	90	91&87	nt	115	nt
Sa growth inh second temp	87	92	91&90	nt	98	nt
GIV Gai3 FP	101	nt	102	106	101	101

(31) CN1CCOC(=O)/C1=N\Nc1cc(Cl)ccc1Cl
(32) O=C(COC(=O)COc1ccccc1)Nc1cccc2ccccc12
(33) COc1ccc(/C=C/c2nc(NCCCN(C)C)c3ccccc3n2)cc1
(34) Cc1cc(C)nc(N/C(=N/S(=O)(=O)c2ccccc2)Nc2ccccc2)n1
(35) Cc1ccc(N2CC(c3nnc(Cc4ccc(F)cc4)o3)CC2=O)cc1 (configuration not stated)
(36) O=C(Nc1ccc(F)cc1)N1CCC2(CC1)C(=O)NCN2c1ccccc1
Compound	31	32	33	34	35	36
HCMV NEC inh	-12	-35	-30	-24	-3	nt
Sa growth inh	101	99	nt	93	103	92
Sa growth inh second temp	100	85	nt	90	49	66
GIV Gai3 FP	nt	nt	106	99	104	105

(37) O=C(NCC1COc2ccccc2O1)c1ccc2c(c1)OCO2 (configuration not stated)
(38) CSc1c2c(c(C#N)c3nc4ccccc4n13)CCCC2
(39) Cc1ccc(S(=O)(=O)N(C)CCc2noc(-c3ccccc3Cl)n2)c2nsnc12
(40) CCNc1nnc(-c2nn(CC(C)C)c(=O)c3ccccc23)s1
(41) O=C(Nc1cccc(-c2nc3ncccc3o2)c1)c1ccccc1
(42) Cc1sc2ncnc(N3CCN(c4cccc(C(F)(F)F)c4)CC3)c2c1C
Compound	37	38	39	40	41	42
HCMV NEC inh	4	-29	-6	-20	-8	-9
Sa growth inh	90	97	nt	76	84	73
Sa growth inh second temp	83	85	nt	89	85	91
GIV Gai3 FP	nt	101	98	nt	100	nt

An excerpt of these results, with each value named.
#38 CSc1c2c(c(C#N)c3nc4ccccc4n13)CCCC2
- HCMV NEC inh: -29
- Sa growth inh: 97
- Sa growth inh second temp: 85
- GIV Gai3 FP: 101

#39 Cc1ccc(S(=O)(=O)N(C)CCc2noc(-c3ccccc3Cl)n2)c2nsnc12
- HCMV NEC inh: -6
- Sa growth inh: nt
- Sa growth inh second temp: nt
- GIV Gai3 FP: 98

#40 CCNc1nnc(-c2nn(CC(C)C)c(=O)c3ccccc23)s1
- HCMV NEC inh: -20
- Sa growth inh: 76
- Sa growth inh second temp: 89
- GIV Gai3 FP: nt

#41 O=C(Nc1cccc(-c2nc3ncccc3o2)c1)c1ccccc1
- HCMV NEC inh: -8
- Sa growth inh: 84
- Sa growth inh second temp: 85
- GIV Gai3 FP: 100

(further entries)
(43) c1ccc(-c2nc3ccccc3o2)c(-c2nc3ccccc3o2)c1
(44) Cn1ccc2cc(S(=O)(=O)N3CCCN(C(=O)Nc4ccccc4Br)CC3)ccc21
(45) CC(C)c1ccccc1NS(=O)(=O)N(C)C
(46) Cc1ccc2[nH]cc(NC(=O)NCCN3CCc4ccccc4C3)c(=O)c2c1
(47) Cc1ccc(CN2C(=O)c3ccccc3CCC2(C)C(=O)NCCC(C)C)cc1 (configuration not stated)
(48) COc1cc(C(=O)Nc2ccc3nc(N4CCN(c5ncccn5)CC4)cc(C)c3c2)cc(OC)c1OC
Compound	43	44	45	46	47	48
HCMV NEC inh	-14	nt	1	-17	-31	-9
Sa growth inh	88	119	106	nt	nt	93
Sa growth inh second temp	85	91	101	nt	nt	90
GIV Gai3 FP	105	103	105	110	111	111

(49) COc1ccc(CN(C(=O)c2cc3ccccc3oc2=O)C2CCS(=O)(=O)C2)cc1 (configuration not stated)
(50) Clc1ccc(Nc2nc(Nc3cccc(Cl)c3)nc(N3CCOCC3)n2)cc1
(51) COc1ccc2oc(=O)c(-c3nnc(-c4ccc(C)cc4)o3)cc2c1
(52) Cc1cc(=O)oc(C)c1C(=O)OCC(=O)c1ccc(Cl)c(Cl)c1
(53) Cc1cc(NC(=O)c2cc3c(s2)CCCC3)no1
(54) COc1ccc(C)cc1NC(=O)c1cc(C2CC2)[nH]n1
Compound	49	50	51	52	53	54
HCMV NEC inh	-28	-32	4	nt	-24	nt
Sa growth inh	99	95	103	91	107	105
Sa growth inh second temp	83	85	106	89	86	89
GIV Gai3 FP	98	106	111	104	nt	105

(55) O=S(=O)(NCC1CCCO1)c1ccc(S(=O)(=O)N(Cc2ccccc2)Cc2ccccc2F)cc1 (configuration not stated)
(56) CCOC(=O)Cc1nn(CC)c(=O)c2ccccc12
(57) COc1ccc(C2=Nn3c([n+](C)c4ccccc43)SC2)cc1
(58) CCCC(=O)N(Cc1nc2nc(C)cc(C)n2n1)c1ccc(Cl)cc1
(59) c1ccc2c(c1)CCCN2c1nc(N2CCOCC2)nc(N2CCOCC2)n1
(60) O=C(O)C1C2C=CC(O2)C1C(=O)N1CCOCC1 (configuration not stated)
Compound	55	56	57	58	59	60
HCMV NEC inh	-12	0	-97	24	-4	9
Sa growth inh	nt	98	1.4*	nt	100	74
Sa growth inh second temp	nt	73	1.4*	nt	98	93
GIV Gai3 FP	103	99	107	107	107	103

Record cards (already shown):
Profile of COc1ccc(C2=Nn3c([n+](C)c4ccccc43)SC2)cc1 = HCMV NEC inh = -97; Sa growth inh = 1.4*; Sa growth inh second temp = 1.4*; GIV Gai3 FP = 107
Profile of c1ccc2c(c1)CCCN2c1nc(N2CCOCC2)nc(N2CCOCC2)n1 = HCMV NEC inh = -4; Sa growth inh = 100; Sa growth inh second temp = 98; GIV Gai3 FP = 107

The list goes on.
(61) COc1ccc(/C=C2\C(=O)Nc3ccccc32)c(OC)c1
(62) CCCN(CCC)S(=O)(=O)c1cccc(-c2cn3ccc(C)cc3n2)c1
(63) O=C(CSc1nc2ccccc2nc1Cc1ccc(F)cc1)NCCc1ccccc1
(64) O=C(O)/C=C/c1ccc(S(=O)(=O)N(CCO)CCO)cc1
(65) Cc1ccc(-c2cc(-c3cccs3)[nH]n2)c(O)c1
(66) O=C(CSc1ncnc2ccccc12)c1ccccc1
Compound	61	62	63	64	65	66
HCMV NEC inh	-34	nt	-24	-14	-12	-16
Sa growth inh	69	95	nt	107	77	103
Sa growth inh second temp	87	63	nt	94	62	87
GIV Gai3 FP	nt	98	94	108	nt	nt

(67) CCn1cnc(S(=O)(=O)N2CCCC(C(=O)N3CCCC3)C2)c1 (configuration not stated)
(68) Cc1ccc(CC(=O)Nc2ccc3nc(N4CCC(C(N)=O)CC4)cc(C(=O)O)c3c2)cc1
(69) CCOC(=O)N1C(=O)c2ccccc2NC1(C(F)(F)F)C(F)(F)F
(70) O=C(NCCCN1CCC(N2CCCCC2)CC1)c1nnc(C(=O)Nc2ccc(F)cc2)s1
(71) CSc1ccc(CNCc2ccncc2)cc1
(72) O=C(NCc1ccc(F)cc1)c1ccc2c(Cl)c3c(nc2c1)CCCC3
Compound	67	68	69	70	71	72
HCMV NEC inh	-11	-50	nt	-16	-11	-36
Sa growth inh	nt	nt	102	nt	107	104
Sa growth inh second temp	nt	nt	66	nt	97	92
GIV Gai3 FP	105	101	102	102	102	104

(73) Cc1ccc(-n2cnc3cc(N=Cc4nc5ccccc5n4C)ccc32)cc1
(74) Cc1ccc(-n2nnnc2CNC(=O)c2ccccc2C)cc1C
(75) O=C(/C=C/OC(=O)c1ccc(Cl)cc1)c1ccc(Cl)cc1
(76) O=C(O)c1cn(-c2ccccc2)nc1/C(=N\O)c1ccccc1
(77) NNC(=O)c1ccccc1S(N)(=O)=O
(78) CC1Cc2cc(S(=O)(=O)NCc3ccc(F)cc3)ccc2N1C(=O)C1CCC1 (configuration not stated)
Compound	73	74	75	76	77	78
HCMV NEC inh	-8	nt	10	-18	7	nt
Sa growth inh	108	106	117	95	94	103
Sa growth inh second temp	104	86	82	92	93	98
GIV Gai3 FP	102	102	106	nt	nt	107

(79) CN(Cc1ccc(Cl)c(Cl)c1)Cn1nnc2ccccc2c1=O
(80) S=C(N/N=C/c1cccs1)N/N=C/c1cccs1
(81) O=C(COCc1cc(-c2ccco2)on1)Nc1cccnc1
(82) O=C(CSc1nc2cc(Cl)ccc2s1)NCc1ccc(F)cc1
(83) O=S1(=O)CC(N2CCCCC2)c2ccccc21 (configuration not stated)
(84) CCc1ccc(NC(=O)C2CCC(CNS(=O)(=O)c3cccs3)CC2)cc1 (configuration not stated)
Compound	79	80	81	82	83	84
HCMV NEC inh	-14	-112	-12	-6	-17	-12
Sa growth inh	97	65	103	113	98	91
Sa growth inh second temp	92	24	99	94	84	87
GIV Gai3 FP	nt	108	111	nt	104	103

(85) CNC(=O)c1c(NC(=O)CC2SC(=O)NC2=O)sc2c1CCCC2 (configuration not stated)
(86) Cc1cc2ccccc2c(=O)n1CC(=O)NCCCN1CCC(C)CC1
(87) COc1ccc2nc3sc(C(=O)N(C)c4ccc(Cl)cc4)cc3cc2c1
(88) CC(=O)Nc1cccc(-c2nnc(SCC(=O)c3cc([N+](=O)[O-])ccc3Br)o2)c1
(89) Cc1cnc(C(=O)OCc2csc(-c3ccccc3)n2)cn1
(90) CCOc1ccc(NC(=O)CN2CCN(Cc3ccccc3)S2(=O)=O)cc1
(91) N#CCCN(Cc1ccccc1)C(=O)Nc1ccccc1
Compound	85	86	87	88	89	90	91
HCMV NEC inh	-37	nt	nt	-27	-16	nt	-13
Sa growth inh	95	101	86	89	107	88	89
Sa growth inh second temp	59	82	84	85	91	89	94
GIV Gai3 FP	108	94	102	103	nt	99	101
